# Bioassay records: PubChem BioAssay, Johns Hopkins Ion Channel Center
# KCNQ2 enhance – potentiators of rat KCNQ2 potassium channel; Potassium voltage-gated channel subfamily KQT member 2 (Rattus norvegicus), O88943; CHO-K1 KCNQ2, FluxOR thallium flux fluorescence; stronger effect = higher value; B-score at 10 µM; actives 0.54% (n = 310,000);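 active = fluorescence ratio B-score at least 3 SD of library B-scores, with initial fluorescence B-score within 3 SD, cut at about 5.3 in these data; same plate scores as AID 2156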;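 note: B-score of peak minus minimum over baseline fluorescence ratio after K+ and Tl+ stimulus; positive B-score means potentiation of KCNQ2 with more thallium influx and brighter signal; only the inactives scoring about 0 or higher are listed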
# Target sequence (O88943 whole entry, looked up): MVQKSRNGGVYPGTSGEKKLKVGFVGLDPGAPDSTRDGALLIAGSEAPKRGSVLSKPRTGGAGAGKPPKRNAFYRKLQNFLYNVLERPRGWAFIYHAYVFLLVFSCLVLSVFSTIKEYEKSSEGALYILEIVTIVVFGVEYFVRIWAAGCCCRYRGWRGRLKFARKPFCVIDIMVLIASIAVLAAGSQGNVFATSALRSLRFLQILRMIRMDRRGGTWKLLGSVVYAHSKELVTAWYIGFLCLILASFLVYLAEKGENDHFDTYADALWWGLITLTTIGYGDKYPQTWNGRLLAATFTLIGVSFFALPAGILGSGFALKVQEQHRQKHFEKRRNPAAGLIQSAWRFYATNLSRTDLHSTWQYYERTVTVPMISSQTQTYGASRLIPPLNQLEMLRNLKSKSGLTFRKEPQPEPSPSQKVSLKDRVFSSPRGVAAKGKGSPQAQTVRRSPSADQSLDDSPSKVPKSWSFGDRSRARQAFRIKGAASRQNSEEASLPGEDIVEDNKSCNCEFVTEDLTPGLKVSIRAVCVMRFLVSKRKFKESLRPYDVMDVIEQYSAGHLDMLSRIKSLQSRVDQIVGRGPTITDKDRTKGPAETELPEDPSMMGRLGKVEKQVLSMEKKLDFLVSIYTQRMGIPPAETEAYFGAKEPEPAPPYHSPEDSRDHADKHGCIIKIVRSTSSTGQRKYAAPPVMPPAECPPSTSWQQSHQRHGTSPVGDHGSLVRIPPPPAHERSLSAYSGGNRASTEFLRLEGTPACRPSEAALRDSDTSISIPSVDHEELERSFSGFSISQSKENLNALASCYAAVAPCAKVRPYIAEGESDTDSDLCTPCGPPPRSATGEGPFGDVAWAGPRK
# KCNQ2 enhance baseline – further read-out of KCNQ2 enhance, marked with its call; B-score; compound at 10 µM; measured here: initial fluorescence intensity artifact check;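 brightness before thallium and not channel activity; 0 = typical well and far values either way flag optical interference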
# * hit, by the source's call. Some of the compounds tested, so the mix of outcomes need not match the whole.
SMILES,KCNQ2 enhance,KCNQ2 enhance baseline
CC(C)c1ccc(/C=N/NC(=O)CN(c2cccc(Cl)c2Cl)S(C)(=O)=O)cc1,1.02,-0.54
O=C(CSc1ncnc2c1oc1ccccc12)Nc1cccc(C(F)(F)F)c1,1.18,0.64
Cc1ccc(S(=O)(=O)N/N=C/c2ccccc2O)cc1[N+](=O)[O-],0.05,-0.15
CN(C)/C=N/c1nc2nccc(-c3ccccn3)n2n1,1.97,0.59
Cn1ccnc1C(=O)c1ccc(N)cc1,1.58,2.69
Cc1ccn(C(C)CC(=O)N2CCc3ccccc32)n1 (stereo unspecified),0.78,1.93
CC(C)c1nnc(SCC(=O)Nc2ccc3c(c2)OCCO3)n1C,0.89,0.03
COc1cccc(OC)c1OCCCN1CCC(Cc2ccccc2)CC1,0.35,-0.24
O=C(O)CCCN1C(=O)c2ccccc2Sc2ncccc21,0.53,0.12
C=CCn1c(SCCCCCC)nc(O)cc1=O,0.52,-1.44
COc1ccc(-c2nsc(SCC(=O)Nc3ccc4c(c3)OCO4)n2)cc1,1.29,0.68
CCn1c(SCC(=O)Nc2cc(C)on2)nnc1-c1c[nH]c2ccccc12,0.59,1.09
Cc1ccccc1NC(=O)Nc1cccs1,0.84,0.1
O=C(NNC(=O)C1CCCCC1)c1ccncc1,0.2,0.44
CC(=O)C1=C(O)C(=O)N(c2ccc(Br)cc2)C1c1cccc(F)c1 (stereo unspecified),0.79,-0.9
Cc1ccccc1OCCC(=O)Nc1cccc(S(=O)(=O)Nc2ccccc2Cl)c1,0.68,-0.33
CC1(C)CC(=O)C=C(NCC(=O)O)C1,1.32,1.51
CCN(CC(=O)Nc1c(F)cccc1F)C(=O)CCSc1ccc(F)cc1,0.39,1.61
COc1ccc(NC(=O)CSc2nc3ccccc3c(=O)n2CCNC(C)=O)cc1,0.06,0.25
Nc1[nH]ncc1N=Nc1ccc(Cl)cc1,0.1,-0.01
Cc1ncc(/C=C2\C(=O)Nc3ccccc32)[nH]1,5.12,0.77
Cc1ccc(-c2cc(=O)[nH]c3ccccc23)cc1,0.79,-0.59
CC(C)C[C@H](NC(=O)[C@H](Cc1ccccc1)n1c(=O)[nH]c2ccccc2c1=O)C(=O)N1CCC[C@H]1C(=O)O,0.72,-1.74
NC(=O)CCc1c[nH]c2ccccc12,0.23,0.31
CCOc1ccccc1NC(=O)NC1(C(=O)NCc2cccnc2)CCCCC1,1.33,-0.81
O=C(CCN1CCOCC1)Nc1ccccc1,0.41,-1.51
O=C(Oc1ccc2c3c(c(=O)oc2c1)CCCC3)c1cccs1,0.14,0.5
COc1cccc(C2c3c(oc4ccccc4c3=O)C(=O)N2Cc2ccco2)c1 (stereo unspecified),0.28,-2.23
CCOC(=O)c1cccc(NC(=S)NCc2ccc(C)cc2)c1,1.07,1.76
COc1ccccc1NC(=O)Nc1nc(CC(=O)NC2CCCC2)cs1,0.09,0.24
Cn1cnnc1Sc1ccc(/C=C(\CCC(=O)O)c2nc3ccccc3s2)cc1[N+](=O)[O-],1.07,-0.9
COc1ccc(C(=O)Oc2ccc(C(=S)N3CCCC3)cc2)cc1OC,0.37,1.1
Cn1c(SCC(=O)N2CCCC2=O)nnc1-c1ccccc1F,2.07,1.35
C=CCOc1ccc(/C=N/Nc2ccccn2)cc1OC,0.37,0
COC(=O)c1cc(NS(=O)(=O)c2ccc(OC)c(OC)c2)ccc1Cl,1.95,-3.37
COc1ccc(CC(=O)N/N=C(\C)c2cccnc2)cc1,0.32,0.02
O=C(NCCCn1ccnc1)/C(=C\c1cccnc1)NC(=O)c1ccccc1F,0.42,-1.19
CCOC(=O)C1=C(C)N=C2SC(C(=O)OC)=CC(=O)N2C1c1cc(OC)c(OC)c(OC)c1 (stereo unspecified),1.4,-2.28
Cc1cc(/C=N/n2cnnc2)c(C)n1-c1ccc2c(c1)OCO2,2.61,-0.85
Nc1ccc(Sc2ccccc2Cl)nc1,1.73,0.89
Cc1ccc(NC(/C=C/N(C)C)=C/C(=O)C(F)(F)F)c(C)c1,0.79,-0.35
Cc1cc(C)c2nc(-c3ccco3)cc(C(=O)O)c2c1,0.06,0.04
CC1CCN(C(=O)CSc2nnc3c(n2)[nH]c2ccccc23)CC1,0.81,0.39
O=C(CN1CCCCCC1)N1c2ccccc2Sc2ccccc21,0.1,0.64
FC(F)(F)c1nc2cc3nc4ccccc4[nH]c3cc2n1,1.99,-0.82
COc1ccc(NC(=O)c2cc3c(COC(C)=O)cnc(C)c3oc2=Nc2cccc(C(=O)O)c2)c(OC)c1,1.54,-1.52
O=C1C2ON(c3ccccc3)C(c3ccncc3)C2C(=O)N1c1ccc(Br)cc1 (stereo unspecified),0.29,0.95
CC(=O)c1ccc(N2CCN(C(=O)c3nn(C)c4c3CS(=O)(=O)c3ccccc3-4)CC2)cc1,0.67,-0.28
CC1=CC(C)C(COC(=O)CN2CCCCC2)C(C)C1 (stereo unspecified),0.98,0.6
CCc1nnc(NC(=O)c2ccc3c(c2)C(=O)N(CC(C)C)C3=O)s1,0.88,0.2
Cc1ccc(OCC(=O)NC(=S)Nc2cccc(NC(=O)c3ccccc3)c2)cc1,0.24,0.8
COC(=O)c1cnn(-c2nc(-c3ccccc3)cs2)c1N,1.99,0.2
O=C(Nc1cccc(NC(=O)c2ccccc2[N+](=O)[O-])n1)c1ccccc1[N+](=O)[O-],1.16,-1.01
Clc1ccsc1-c1csc(-c2cccnc2)n1,1.4,0.18
CCN(CC)CCOc1nnc(-c2ccc(OC)cc2)c2ccccc12,0.89,-1.31
CCN(CC)C(=O)c1cc(-c2ccc3c(c2)OCO3)on1,0.03,-1.4
COc1ccc(NC(=O)c2ccc3ccccc3n2)cc1S(=O)(=O)Nc1ccccc1Cl,0.29,0.29
CCN(C(=O)COC(=O)CNC(=O)c1sc2ccccc2c1Cl)C1CCCCC1,0.38,-1.34
Cc1cc(C)nc(N2C(=O)CC(Cc3ccccc3)C2=O)n1 (stereo unspecified),1.72,-1.37
COCCCNC(=O)CN(Cc1ccccc1)S(=O)(=O)c1ccccc1,0.15,0.1
# Following part.
SMILES,KCNQ2 enhance,KCNQ2 enhance baseline
CC(=O)Nc1cccc(NC(=O)CSc2nc3ccccc3o2)c1,0.06,0.5
Cc1nn(Cc2ccccc2)c(Cl)c1/C=C/C(=O)OC(C(=O)NC(N)=O)C(C)C (stereo unspecified),0.74,0.52
CCCOc1ccc(/C(O)=C2/C(=O)C(=O)N(CCCOC)C2c2ccncc2)cc1 (stereo unspecified),0.1,-0.13
O=[N+]([O-])c1cccc(-n2nnnc2CN2CCCCCC2)c1,0.78,1.87
O=Cc1cn(CCC(=O)O)nc1-c1cccc2ccccc12,0.35,1.68
Cc1csc(NC(=O)c2cn3ccccc3n2)n1,2.26,2.86
CC(C(=O)N1CCN(C(=O)c2ccco2)CC1)n1sc2ccccc2c1=O (stereo unspecified),0.29,1.33
O=C(COC(=O)c1ccc(Cl)nc1)NC(=O)c1ccc(OC(F)F)cc1,0.78,0.88
O=C(COC(=O)Cc1c[nH]c2ccccc12)NC1CCS(=O)(=O)C1 (stereo unspecified),3.13,0.4
O=[N+]([O-])c1cn(-c2nc(-c3ccco3)cc(C(F)(F)F)n2)cn1,0.1,1.07
C=CCOc1ccc(CNc2ccc3[nH]c(=O)[nH]c3c2)cc1,1.44,3.92
C/C(=N\NC(=O)CSCc1ccc([N+](=O)[O-])cc1)c1ccccc1O,1.87,-0.26
Cc1cccc(-n2cc(-c3ccccc3)[nH]c2=S)c1,1.94,1.04
Cc1ccc(Cn2c(=N)n(CC(=O)c3ccc([N+](=O)[O-])cc3)c3ccccc32)cc1,1.93,1.46
O=C(NCCN1CCOC1=O)C1CCC(=O)N(CCc2ccc(Cl)cc2)C1 (stereo unspecified),0.84,-0.24
O=C(NCCN1CCOCC1)c1ccc2c(c1)N(Cc1ccccc1F)C(=O)CS2,1.07,-1.03
O=S(=O)(Nc1nc2ccccc2nc1Nc1ccc2c(c1)OCO2)c1ccc(F)cc1,1.08,-0.68
CCOC(=O)c1ccc(NC(=O)CSc2nnc(COc3ccccc3OC)n2CC)cc1,0.32,-0.49
COc1ccc(-c2cccc(NS(=O)(=O)c3cccc([N+](=O)[O-])c3)c2)nn1,0.24,2.2
CCCCc1ccc(-c2csc(/C(C#N)=C\c3ccco3)n2)cc1,0.03,-0.12
COc1ccc(C(=O)Nc2nncs2)cc1S(=O)(=O)N1CC(c2ccccc2)CC1=O (stereo unspecified),1.44,-2.19
COc1ccc(-n2c(SCC(=O)Nc3nccs3)nnc2-c2ccoc2C)cc1,0.11,0
Cc1ccccc1NC(=O)CSc1nnc2ccc(-c3ccncc3)nn12,3.99,0.75
CNCC(O)Cn1c2c(c3ccccc31)CCCC2 (stereo unspecified),0.34,1.21
O=c1[nH]nc(-c2ccc(F)cc2)cc1Cc1ccc(F)cc1,0.17,0.99
Cc1cc(C(F)(F)F)nn1Cc1n[nH]c(=S)n1-c1ccc(F)cc1,0.62,-0.1
COc1ccc2c(c1OC)C(=O)N(c1cccc(C)c1)C2=O,1.26,-0.74
CC(=O)Oc1cccc(N2C(=O)C3C(C2=O)C2C=CC3C23CC3)c1 (stereo unspecified),1.12,0.55
Oc1[nH]c2ccc(Br)cc2c1N=Nc1nn[nH]n1,1.65,1.24
COC(=O)C1CCN(C(=O)NC(C)(C)C)CC1,1.02,-0.77
O=C(NCC1c2ccccc2CCN1C(=O)CN1CCOCC1)C1CCCCC1 (stereo unspecified),1.18,-0.15
O=C(NC1CCCCCCC1)c1ccc(F)cc1,0.12,-0.04
CN(C)CCNC(=O)Nc1ccc(Cl)c(Cl)c1,0.09,0.67
CCOC(=O)c1ccc(NC(=S)N(CCCN2CCN(CC)CC2)Cc2cccs2)cc1,0.01,-1.1
COc1ccc(O)c(CN2CCN(C/C=C/c3ccccc3)CC2)c1,0.57,-0.02
Cn1cc(C(=O)NCC2COc3ccccc3O2)c(=O)c2cc(S(=O)(=O)N3CCCCC3)ccc21 (stereo unspecified),1.18,2.46
CCOc1ccc(S(=O)(=O)Nc2ccc3c(c2)OCO3)cc1,0.71,-1.04
Cc1cc[n+]2cc(-c3cccc([N+](=O)[O-])c3)c(-c3cccc([N+](=O)[O-])c3)cc2c1,0.32,0.43
Cn1c(O)c(N=NC(=O)CNC(=O)c2ccccc2)c2cc(Br)ccc21,0.38,0.1
CC(C)(C)CC(=O)Nc1nnc(CCc2ccccc2)s1,0.95,0.45

# Ordered by the number under KCNQ2 enhance (descending): three of the compounds above
SMILES,KCNQ2 enhance,KCNQ2 enhance baseline
Cc1ccc(NC(/C=C/N(C)C)=C/C(=O)C(F)(F)F)c(C)c1,0.79,-0.35
O=C(O)CCCN1C(=O)c2ccccc2Sc2ncccc21,0.53,0.12
CCOC(=O)c1ccc(NC(=S)N(CCCN2CCN(CC)CC2)Cc2cccs2)cc1,0.01,-1.1

# One compound at a time, from the list above. Screens in order: KCNQ2 enhance, KCNQ2 enhance baseline
# COc1ccc2c(c1OC)C(=O)N(c1cccc(C)c1)C2=O across the screens: 1.26, -0.74
# Cn1c(O)c(N=NC(=O)CNC(=O)c2ccccc2)c2cc(Br)ccc21 across the screens: 0.38, 0.1
# CN(C)CCNC(=O)Nc1ccc(Cl)c(Cl)c1 across the screens: 0.09, 0.67
# Cc1cc[n+]2cc(-c3cccc([N+](=O)[O-])c3)c(-c3cccc([N+](=O)[O-])c3)cc2c1 across the screens: 0.32, 0.43
# CC(C)(C)CC(=O)Nc1nnc(CCc2ccccc2)s1 across the screens: 0.95, 0.45

# Part of the list above, bar-delimited.
SMILES | KCNQ2 enhance | KCNQ2 enhance baseline
CC(=O)Oc1cccc(N2C(=O)C3C(C2=O)C2C=CC3C23CC3)c1 (stereo unspecified) | 1.12 | 0.55
O=C(NCC1c2ccccc2CCN1C(=O)CN1CCOCC1)C1CCCCC1 (stereo unspecified) | 1.18 | -0.15
Cc1ccccc1NC(=O)CSc1nnc2ccc(-c3ccncc3)nn12 | 3.99 | 0.75

# (continued)
SMILES,KCNQ2 enhance,KCNQ2 enhance baseline
Cn1cccc1C1NC(=O)c2c(sc3c2CCC(C(C)(C)C)C3)N1 (stereo unspecified),0.23,2.19
COCCCNCCOc1ccccc1-c1ccccc1,1.56,-1.24
O=C(Nc1cc2ccccc2oc1=O)C1CCCCC1,1.03,-1.45
CCOC(=O)N1CCN(C(=O)c2ccc3nc4ccsc4c(=O)n3c2)CC1,0.67,-0.61
COc1cc2ccccc2cc1C(=O)N1CCN(C)CC1,0.62,0.85
CCCOC1OC(=O)c2c1ccc(OC)c2OC (stereo unspecified),2.44,-0.02
O=C(NCCc1c[nH]c2ccccc12)C(=O)NCC1OCCCN1S(=O)(=O)c1cc(F)ccc1F (stereo unspecified),0.38,-0.34
CSc1cc(-c2ccc(Cl)cc2)[nH]c(=O)c1C#N,2.12,0.82
Cc1ccc2c(c1)COc1c3ccc(C(=O)N4CCOCC4)cc3nn1-2,0.73,-0.78
NC(=O)[C@@H]1CCCNc2c(F)cc([N+](=O)[O-])cc2C(=O)N[C@@H](CO)C(=O)N[C@@H](Cc2ccc(O)cc2)C(=O)N1,4.95,0.92
O=C1N/C(=C/c2ccsc2)C(=O)N1c1ccccc1,2.11,0.54
CC1CCCC(C)N1CCCNC(=O)C(=O)Nc1ccc2nc3n(c(=O)c2c1)CCCCC3 (stereo unspecified),0.74,0.44
O=C(Nc1ccc(F)cc1)c1cccc(N2C(=O)c3ccccc3C2=O)c1,0.15,1.4
CN(Cc1ccccc1)C(=O)COC(=O)C1CCN(S(=O)(=O)c2ccc3c(c2)OCCO3)CC1,2.2,-0.2
O=C(CN1C(=O)CSC1=O)Nc1ccc(F)c(F)c1F,0.14,-1.22
O=C1CC(c2cccs2)c2cc3c(cc2N1)OCO3 (stereo unspecified),0.18,-1.56
NC(=O)Cc1ccc(Nc2nnc(-c3ccc(O)cc3)c3ccccc23)cc1,0.61,-2.1
O=c1[nH]c(Nc2nc3ccccc3o2)nc2c1CCCC2,0.59,-1.76
